# Bioassay records from PubChem BioAssay.
# eIF4H inh = human eIF4H binding inhibitors, primary screen, translation initiation inhibitor project, biochemical, uHTS, fluorescence polarization; Eukaryotic translation initiation factor 4H (Homo sapiens), Q15056; eIF4H fluorescence polarization binding assay; inhibition, % at 35 µM; hit rate 0.94% among 290,000;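 active = 50% or more with normal probe brightness, or confirmed in later tests; inconclusive = above 50% with abnormal brightness, or retests that disagree; inactive = below 50% or failed in later tests; about a fifth of its hits are not listed in these tables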;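 note: calls also rest on retests at 20 µM and on dose response follow-up; 0% = protein and probe with vehicle and 100% = probe without protein; strong numbers were not always called active; many hits fall short of the cut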
# Rce1 inhib = yeast Rce1p protease inhibitors, primary screen, biochemical, fluorescence, cell-free homogeneous; CAAX prenyl protease 2 (Saccharomyces cerevisiae (strain ATCC 204508 / S288c)), Q03530; yeast membranes, quenched prenylated peptide cleavage fluorescence; calls only; hit rate 0.27% among 290,000;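 active = fall in fluorescence gain of 50% or more versus controls, with final raw signal at or below 3038400; inconclusive = same 50% fall but final raw signal above 3038400; inactive = fall in fluorescence gain under 50%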;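 note: plate controls were neutral control wells for no effect and wells lacking membranes for full effect; tested at 10 µM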
# MT1-MMP act inh = blockers of MT1-MMP proenzyme processing, primary screen, HT1080 RFP-PRO-GFP cells, GFP/RFP fluorescence; Matrix metalloproteinase-14 (Homo sapiens), P50281; GFP/RFP ratio fluorescence, overnight; percent of plate control window, DMSO zero; GFP/RFP ratio change, % at 20 µM; hit rate 0.061% among 360,000; AID 651647, 2012;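 active = GFP/RFP ratio change of at least 30% with cell ATP level not reduced by more than half and red fluorescence within 50% of control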; note: strong numbers were not always called active
#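 Assay system: HT1080 RFP-PRO-GFP cells | Dosing: 20 µM single dose, 1% DMSO | Incubation: Cells overnight before dosing, compound overnight, 37 °C, 5% CO2 | Evaluation: GFP/RFP fluorescence ratio | Control set: DMSO-only wells and HT1080 RFP-L50D-GFP cell wells as references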
# PABP FP inh = PABP poly(A) RNA binding inhibitors, primary screen, biochemical, fluorescence polarization, uHTS | Polyadenylate-binding protein 1 (Homo sapiens), P11940 | inhibition, % at 35 µM | hit rate 1% among 290,000 | AID 2014, 2009;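 active = 50% or more with normal probe brightness, or confirmed in later tests; inconclusive = above 50% with abnormal brightness, or retests that disagree; inactive = below 50% or failed in later tests; about a fifth of its hits are not listed in these tables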;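 note: calls also rest on retests at 20 µM and on dose response follow-up; controls were probe without protein and protein plus probe with vehicle; some compounds called inactive have numbers as strong as hits; many hits fall short of the cut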
# Target sequence (P11940 whole entry, looked up): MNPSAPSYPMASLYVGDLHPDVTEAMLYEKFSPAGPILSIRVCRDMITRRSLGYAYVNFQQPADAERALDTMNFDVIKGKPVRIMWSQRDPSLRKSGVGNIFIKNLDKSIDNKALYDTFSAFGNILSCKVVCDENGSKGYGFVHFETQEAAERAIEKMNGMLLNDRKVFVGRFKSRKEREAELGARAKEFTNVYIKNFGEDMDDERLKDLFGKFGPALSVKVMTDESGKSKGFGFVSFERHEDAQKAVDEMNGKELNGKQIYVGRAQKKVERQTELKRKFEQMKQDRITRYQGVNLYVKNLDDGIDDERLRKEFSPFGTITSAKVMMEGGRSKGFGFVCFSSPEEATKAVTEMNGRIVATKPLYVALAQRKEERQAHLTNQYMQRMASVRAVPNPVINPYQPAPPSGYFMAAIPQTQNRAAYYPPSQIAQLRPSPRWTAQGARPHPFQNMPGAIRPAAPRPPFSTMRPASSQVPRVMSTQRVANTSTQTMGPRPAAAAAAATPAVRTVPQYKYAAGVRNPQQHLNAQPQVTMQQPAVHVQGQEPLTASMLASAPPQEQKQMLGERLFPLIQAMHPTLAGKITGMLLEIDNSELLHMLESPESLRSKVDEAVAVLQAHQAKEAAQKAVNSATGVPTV
# HIV Env fusion = inhibitors of HIV-1 Env-driven cell-cell fusion, primary screen, HeLa-JRFL effector, CEM21 target cells, luciferase; inhibition, % at 12.3 µM; hit rate 1.1% among 360,000;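 active = mean replicate inhibition score of at least 50 and every replicate individually at or above 50; inconclusive = only one of the two criteria met; inactive = mean below 50 and not all replicates reaching 50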;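 note: 0% = plate neutral controls and 100% = maraviroc near 300 nM; one replicate is shown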
# Yeast UUG start = modulators of yeast start codon fidelity, primary screen, whole organism, S. cerevisiae, single point, plate reader; S. cerevisiae UUG-firefly luciferase reporter, luminescence/redox ratio; AID 602363, 2012; activity score, % at 18.7 µM; hit rate 0.13% among 350,000;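 active = replicate mean at a twofold rise or more, about +100% in these data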;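 note: firefly luciferase made from a UUG start codon reports start codon fidelity; reporter light over untreated wells divided by growth signal over untreated wells; some hits fall short of that in this replicate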
# CSC inhib = cancer stem cell viability inhibitors, primary screen, luminescence. cancer stem cell-like cells viability. inhibition, % at 7.5 µM. hit rate 1.1% among 300,000. AID 2717, 2010;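 active = mean at 75% or more and at least half the replicates too; inconclusive = mean and replicates disagree; tested in HMLE shEcad cells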;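 note: 0% = median of negative and 100% = median of positive control wells; the first replicate is given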
# eIF4H inh retest = second read-out of eIF4H inh, no call of its own (marks repeat the call); inhibition, %; compound at 20 µM; confirmation average;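 mean of two retest wells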
# PABP FP inh retest = also measured in PABP FP inh; calls as there; inhibition, %; compound at 20 µM; confirmation repeats;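 mean of two retest wells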
# MT1-MMP act inh RFP = also measured in MT1-MMP act inh; calls as there; RFP signal change, %; measured here: RFP expression control read;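 0 = vehicle wells; hits needed this value within 50% of zero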
# An asterisk follows results filed as active; i = inactive; u = inconclusive; x = no result given; & = joins results of further samples. These rows are one share of the data; rates above refer to the full screens.
SMILES,eIF4H inh,Rce1 inhib,MT1-MMP act inh,MT1-MMP act inh RFP,PABP FP inh,HIV Env fusion,Yeast UUG start,CSC inhib,others
Nc1c(C(=O)OCC2CCCO2)c2nc3ccccc3nc2n1Cc1cccs1 (centres undefined),-1,i,-11,5,-2,x,-9,5,
CCC(=NCc1cccnc1)c1c(O)n(-c2ccccc2)c(=O)[nH]c1=O,0,i,-4,-10,5,-8,-8,-9,
CC(=NCc1ccco1)c1c(O)n(-c2ccccc2)c(=O)[nH]c1=O,1,i,6,10,-6,-14,-12,-3,
CCN1CCN(Cc2cc(Br)ccc2O)CC1,-9,i,1,2,10,u,-18,-2,
Fc1ccccc1CCNCc1cccc2ccccc12,-6,i,-1,1,-10,1,x,5,
CCc1nc(N2CCNCC2)c(C#N)c2c1CSC(C)(C)C2,3,i,6,-4,9,9,-13,28,
O=C1NC(=O)N(Cc2ccc(F)cc2)C(=O)/C1=C\c1ccc(N2CCCC2)cc1,u,i,20,65,u,-11,x,-6,
CCN(CC)c1ccc(CNCCc2ccccc2F)cc1,-3,i,4,3,-1,23,x,48,
C1=C(CCNCc2ccccc2)CCCC1,-4,i,1,4,4,-17,-10,8,
O=[N+]([O-])c1cc2c(cc1CNCCc1ccc3c(c1)OCO3)OCO2,33,i,4,4,-5,-32,-11,x,
NCCc1ccccc1,x,i,2,4,x,x,-22,-16,
CCN(CC)CCNCc1nc2ccccc2c(=O)n1-c1ccc(F)cc1,-1,i,11,5,2,x,-16,-8,
C=CCn1c(O)c(C=Nc2ccc(F)cc2)c(=O)[nH]c1=O,6,i,-6,-1,-6,-10,-13,5,
COc1ccc(CNCCc2c(C)[nH]c3ccc(OC(F)(F)F)cc23)c(OC)c1,-5,i,-12,-30,-4,25,-5,16,
O=c1[nH]cc(COCC(F)(F)C(F)(F)C(F)(F)F)c(=O)[nH]1,-4,i,-14,-1,2,-15,-1,-11,
COc1ccc(C[C@@H]2c3cc(O)c(OC)cc3CCN2C)cc1O,2,i,-3,3,2,x,-18,-1,
CCc1cccc(C)c1NC(=S)N1CC2CC(C1)c1cccc(=O)n1C2 (centres undefined),28,i,2,-4,12,4,x,-20,
COc1ccc(CCn2c(O)c(C=NCc3ccc4c(c3)OCO4)c(=O)[nH]c2=O)cc1OC,-4,x,0,-1,-3,-12,-17,7,
O=C(O)C1C2CCC(O2)C1C(=O)Nc1cccc(Br)c1 (centres undefined),-2,i,1,6,-9,3,-4,1,
C=CCN1C(=O)/C(=C/c2cccs2)C(=O)NC1=S,67,i,35*,48*,15*,20,x,28,eIF4H inh retest=18;PABP FP inh retest=58*
COC(=O)C1=C(c2cc3ccccc3o2)C[C@@H]2CC[C@H]1N2C(=O)NCCO,x,i,-2,2,x,-12,22,3,
CC(=O)NNC(=O)CN1C(=O)CN=C(c2ccccc2)c2cc(Br)ccc21,-12,i,2,1,8,11,x,-10,
Cc1ccc(C)c(OCC(=O)N2CCN(Cc3ccc4c(c3)OCO4)CC2)c1,4,i,-1,2,2,12,x,1,
Cc1ccc(S(=O)(=O)Nc2cc(C(=O)N3CCC4(CC3)OCCO4)ccc2N2CCCCC2)cc1,-2,i,1,-3,-6,x,16,-4,
CCOP(=S)(OCC)C(O)CCCCCn1c(=O)c(F)cn(C2CCCO2)c1=O (centres undefined),-12,i,-1,-3,-4,9,3,-1,
CC(C)OCC(O)CN1CC2C[C@@H](C1)Cn1c2cccc1=O (some centres undefined),3,i,-1,2,7,-2,4,-12,
O=C(CN1CCCC1)Nc1ccc(Cl)cc1C(=O)c1ccccc1,11,i,-5,-2,-2,15,x,85*,
CCCc1nc2ccc(Br)cc2c(=O)n1-c1ccc([N+](=O)[O-])c(C(F)(F)F)c1,5,i,-16,-22,22,14,-13,127*,
O=[N+]([O-])c1cccc(C2N3CCCN23)c1 (centres undefined),-9,i,0,6,-5,-32,-12,-10,
COC(=O)C1=C(c2ccc(F)cc2OCc2ccccc2)C[C@@H]2CC[C@H]1N2C(=O)NCCNC(C)=O,x,x,-6,-5,x,-16,-9,9,
COc1cc(C)c(CNCCc2c[nH]c3ccccc23)cc1C,-8,i,-7,2,7,81*,-5,38,
CCN(CC)P(=O)(/C=C(\Cl)c1ccccc1)/C=C(\Cl)c1ccccc1,12,i,3,1,-3,2,x,6,
CC(=O)OC1(Cc2ccccc2)CN2CCC1c1ccccc12 (centres undefined),-1,i,-1,3,9,x,13,28,
N=C1C(c2ccccc2)=C(O)CN1Cc1ccco1,-2,i,2,5,5,x,-14,6,
Fc1ccc2c(c1)nnn2C1CCN(Cc2ccccc2)CC1,4,i,-5,-1,7,-52,-7,-2,
CCN1C(=O)C(=C2C=C(C)OC(C)=C2)C(=O)N(CC)C1=S,0,i,-40,-2,0,21,x,-1,
COC(=O)C1=C(c2c(C)noc2C)C[C@@H]2CC[C@H]1N2C(=O)NC1CCCCC1,x,x,5,8,x,20,-11,-25,
CN(C)/C=C/C(=O)C(Cl)(Cl)Cl,37,i,0,4,3,3,x,-6,
CCc1ccc(NP(=O)(Oc2ccccc2F)Oc2ccccc2F)cc1,2,i,-2,-3,2,20,x,28,
O=C(c1ccc(CNS(=O)(=O)c2ccccc2)cc1)N1CCC2(CC1)OCCO2,3,x,2,-1,0,x,11,1,
Cc1[nH]c2c(Cl)cccc2c1CCN,6,i,x,x,6,x,x,-2,
CCCCCCCSc1cc(OC)c(CCN(C)C)cc1OC,-1,i,-7,-5,1,x,x,34,
CCOc1cc2c(cc1OCC)-n1cccc1C(c1cccc(F)c1)NC2 (centres undefined),-6,i,-3,-3,-1,0,-13,-8,
CN1C[C@H]2CON(C)[C@H]2C[C@H]1c1cccc(Br)c1,x,x,2,5,x,-6,-7,x,
Cc1ccccc1-n1c(O)c(C(c2ccncc2)c2c(O)n(-c3ccccc3C)c(=O)[nH]c2=O)c(=O)[nH]c1=O,16&2,i,1&2,3&8,-6&-4,0&4,-6&11,-9&-14,
COc1cc(Br)c(CNCCc2ccc3c(c2)OCO3)cc1OC,0,i,0,1,-5,21,-12,-5,
O=[N+]([O-])c1ccc(N2CCOCC2)c2c1no[n+]2[O-],x,x,-157,-27,x,-229,54,x,
Cc1cc(C)c(Cn2c(C(=O)O)c(C=O)c3ccccc32)c(C)c1,12,i,-74,7,-7,0,x,-5,
CC(C)(C)N1C(=O)NC(=O)/C(=C\c2ccc3c(c2)CCN3CCCCl)C1=O,80,i,-14,1,25*,0,-19,9,eIF4H inh retest=-16;PABP FP inh retest=58*
Clc1ccc(CSC(Cn2ccnc2)c2ccc(Cl)cc2Cl)cc1 (centres undefined),1,i,-10,-18,2,34,-41,37,

# (list continues)
SMILES,eIF4H inh,Rce1 inhib,MT1-MMP act inh,MT1-MMP act inh RFP,PABP FP inh,HIV Env fusion,Yeast UUG start,CSC inhib,others
Cc1ccc(N2C(=O)NC(=O)/C(=C/c3cnn(-c4ccc(C)cc4)c3)C2=O)cc1,u,i,3,3,-1,-19,-5,10,
C#CC(CC)(CC)NC(=O)Nc1ccc(OCC)cc1,-8,i,2,0,-4,-19,-13,22,
O=C(c1cccc(N2CCCC2=O)c1)N1CCC2(CC1)OCCO2,-4,i,-3,1,6,x,-6,-8,
COc1ccc(N2C(=O)CC(N3CCC(n4c(=O)[nH]c5ccccc54)CC3)C2=O)cc1 (centres undefined),-5,x,3,4,7,1,-14,5,
CC[C@]12CC[C@H](O)CC1=CCC1C2CC[C@]2(C)C(=O)CCC12 (some centres undefined),x,x,-1,-2,x,3,-5,-17,
CC(=O)c1c(C)n(C2CCCCC2)c2ccc(O)cc12,5,i,-18,-17,3,62*,x,4,
O=Cc1c(C(=O)O)n(Cc2ccc(Cl)cc2)c2ccccc12,-9,i,-73,5,-3,-16,x,-7,
C[C@]12CC[C@H](O)CC1=CCC1C2CC[C@@]2(C)C1C[C@@H]1CC(=O)O[C@@H]12 (some centres undefined),x,x,2,-13,x,14,-11,1,
COC(=O)[C@@]1(Cc2ccc(F)cc2)[C@H]2c3cc(C(=O)N(C)C)[nH]c3C[C@H]2CN1C(=O)c1ccccc1,-1,x,0,-6,1,3,2,-8,
COC(=O)Cn1cc(/C=C2\C(=O)NC(=O)N(c3ccc(OC)cc3)C2=O)c2ccccc21,u,i,-14,10,u,-12,4,-3,
O=c1[nH]c(=S)n(C2CC2)c(O)c1/C=N/N1CCOCC1,4,i,7,8,0,12,x,x,
Cc1ccc(-n2c(O)c(/C=C/C=Nc3ccccc3)c(=O)[nH]c2=O)cc1,u,i,-63,2,6,x,x,x,
CC1=CC(=Cc2sc3ccccc3[n+]2C)C=C(C)O1,-8,x,-67,-25,4,28,x,x,
C=CCOC(=O)COc1cc(C)cc2oc(=O)c3c(c12)CCC3,-8,i,1,1,2,-96,1,-8,
O=C(c1ccccc1)C1CCCN(Cc2nc(-c3cnccn3)no2)C1 (centres undefined),4,i,-4,-1,5,2,-8,x,
Cn1cnc([N+](=O)[O-])c1Sc1ccc([N+](=O)[O-])cc1,19,i,1,-7,9,4,-13,7,
COc1cccc(N2CCN(Cc3cccc(Cl)c3)CC2)c1,-7,i,-2,1,16,x,x,3,
CC1=CC(=O)C2=C(C)C[C@H](O)[C@@H]3[C@H](OC(=O)[C@H]3C)[C@@H]12,x,x,4,6,x,-17,-10,-16,
CCN1CCC(N(C)C2CCCCC2)CC1,0,i,-2,0,16,1,-12,-2,
Cc1cccc(CN2CCCC(C(=O)c3ccc(C(F)(F)F)cc3)C2)n1 (centres undefined),-7,x,-4,-2,-1,1,x,29,
Cc1cccc(N/N=C/c2c(O)[nH]c(=S)[nH]c2=O)c1,x,i,5,4,x,-22,-14,23,
CCCCCOc1ccc(C)cc1CN(CCCl)CCCl,36,i,x,x,68,27,x,-8,eIF4H inh retest=28;PABP FP inh retest=30
Oc1ccc2c3c1O[C@H]1c4oc5ccccc5c4C[C@@]4(O)[C@@H](C2)N(CC2CC2)CC[C@]314,-9,i,-3,2,1,-2,-23,-2,
Cc1ccc(-n2c(C)nc3cc(Cl)ccc3c2=O)nc1,2,i,-1,-3,-3,-15,-1,-13,
CCOC(=O)C1=C(N)OC2=C(C(=O)CCC2)C12C(=O)Nc1ccccc12 (centres undefined),-12,i,5,5,6,-212,-12,-12,
O=C(c1cc2cc(Cl)ccc2[nH]1)N1CCC2(CC1)OCCO2,1,i,-4,3,-8,-14,-18,-11,
CCCOC(=O)COc1cc(C)cc2oc(=O)c3c(c12)CCC3,-2,i,7,4,-1,x,-15,0,
COC(=O)C1=C(c2ccc(S(C)(=O)=O)cc2)C[C@@H]2CC[C@H]1N2C(=O)NC1CCCCC1,x,i,-6,-2,x,-5,-14,-10,
